EPAC1 ag val – human EPAC1 agonism, validation. Potency, µM, for the others: max response, positive = active, most hits filed as activators. EPAC1 Rap1b BODIPY-GDP exchange, fluorescence. O95398. hit rate 1% among 16,000; active = well fitted activation curve with a large enough effect; inconclusive = small, poorly fitted or top-dose-only effect; inactive = no such curve, though single readings can be large or run the other way;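 also: nearly all actives have a fitted effect of over 70% in size; series mostly up to about 76 or 150 µM; scaled to a cAMP control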
* marks the source's active call; other numbers are inactive results; ? = inconclusive; & = joins results of further samples; [ ] = another dose, or the depositor's remark. % is scaled to controls: 0 for no effect and ±100 for the full control effect; potency is read from the fitted curve at half-maximal effect. A portion of the library; the hit share may differ from the screen's.

SMILES	EPAC1 ag val
C[C@]12CCC3C(CC[C@H]4C[C@H](O)CC[C@]34C)C1CC[C@@H]2C(=O)CO (stereo not given in full)	-9.6%
O=C1CCCC2C3CC(CN12)C1CCCCN1C3 (stereo not given)	19.8%
O=c1[nH]c(=O)n(Cl)c(=O)n1Cl	-5.3%
CCN(CC)CCO[C@H]1CC[C@@]2(C)C(=CC[C@@H]3[C@H]2CC[C@]2(C)C(=O)CC[C@H]32)C1	2.5%
CCC(C)C(=O)OC1C(O)C2C(CN3CC(C)CCC3[C@]2(C)O)C2C[C@]34O[C@@]5(O)C(OC(=O)C(C)(O)C(C)O)CCC3(C)C5C(OC(C)=O)C(OC(C)=O)C4[C@@]21O (stereo not given in full)	-7.2%
C[C@]12[C@H](O)CC3C(CC[C@@H]4C[C@@H](O)CC[C@]34C)[C@@]1(O)CC[C@@H]2C1=CC(=O)OC1 (stereo not given in full)	-2.4%
C[C@@]12CC(c3ccoc3)OC(=O)C1CC[C@@]1(C)C2C2C=C[C@@]1(O)C(=O)O2 (stereo not given in full)	-34.9%
COc1ccc2c(c1)c(CCN1CCOCC1)c(C)n2C(=O)c1cccc(Cl)c1Cl	?
c1ccc(CCCCN2CCC(c3ccccc3)CC2)cc1	-15.7%&5.2%
NCC(=O)c1ccc(Cl)c(Cl)c1	6.5%
CC1(C)[C@@H](O)C[C@H]2[C@](C)(O)[C@@H]3CC[C@H]4[C@@H](O)[C@@]3(C[C@@H](O)[C@@]21O)C[C@@]4(C)O	-22.0%&-1.4%
NCCc1c[nH]c2ccccc12	-3.3%&-17.2%&-3.5%
Clc1cncc(N2CCNCC2)n1	-26.8%&5.2%
CC(=O)CC1CCCCN1 (stereo not given)	?
CCCCCCC(=O)O[C@H]1CC[C@H]2[C@@H]3CC[C@H]4CC(=O)C=C(C)[C@]4(C)[C@H]3CC[C@]12C	-27.9%
NNC(=O)c1ccc(O)cc1	4.9%
COc1cc(C[C@@H](C)N)c(OC)cc1C	?
COc1cc(C[C@H](C)N)c(OC)cc1C	-2.0%
COc1ccccc1CN1CC[C@@]2(CCCN(C(=O)Oc3ccccc3)C2)C1	5.7%
CCNC(C)Cc1cccc(C(F)(F)F)c1 (stereo not given)	-5.9%
CCOC(=O)[C@]12Cc3cc4c(cc3[C@H]1N(Cc1ccccc1)C(=O)c1ccccc12)OCO4	23.1%
Cc1c(O)c(O)cc2c1CC=C1[C@]3(C)CC[C@]4(C)CC[C@@](C)(C(=O)O)CC4[C@]3(C)CC[C@]12C (stereo not given in full)	-31.2%[inhibitor]
OCCN(CCO)CCO	2.6%
CN1CCCC(=C(c2cccs2)c2cccs2)C1	-16.4%

Structural class: the compounds so far with nitrogen in an aromatic ring.
SMILES	EPAC1 ag val
O=c1[nH]c(=O)n(Cl)c(=O)n1Cl	-5.3%
COc1ccc2c(c1)c(CCN1CCOCC1)c(C)n2C(=O)c1cccc(Cl)c1Cl	?
NCCc1c[nH]c2ccccc12	-3.3%&-17.2%&-3.5%
Clc1cncc(N2CCNCC2)n1	-26.8%&5.2%

More results follow:
SMILES	EPAC1 ag val
O=P(O)(O)C(Cl)(Cl)P(=O)(O)O	1.8%&-12.0%
CC(C)CN1CC2(CCN(C(=O)c3ccncc3)CC2)C1	-63.4%[inhibitor]
COc1ccc(CCN)cc1O	-1.7%
C[C@]12CCC(=O)C=C1C=C[C@@H]1[C@@H]2CC[C@@]2(C)[C@H]1CC[C@@]2(O)CCC(=O)O	-11.8%
NC(=O)[C@@H]1CCCN1C(=O)[C@H](Cc1ccccc1)NC(=O)[C@@H]1CCCN1C(=O)[C@@H](N)Cc1ccc(O)cc1	-11.0%
N[C@@H](Cn1cc(I)c(=O)[nH]c1=O)C(=O)O	7.2%
CC(=O)OC1CC[C@]2(C)C(CCC3C2CC[C@]2(C)C(C4=CC(=O)OC4)C(OC(C)=O)CC32O)C1 (stereo not given in full)	-17.9%
CC(C)Oc1cccc(NC(=O)c2ccccc2C(F)(F)F)c1	15.5%
O=C1C2CC=CCC2C(=O)N1SC(Cl)(Cl)Cl (stereo not given)	-8.4%
C[C@]1(O)CC[C@H]2[C@@H]3CCC4=CC(=O)CC[C@]4(C)[C@@]3(F)[C@@H](O)C[C@@]21C	6.9%
C=CCC1([C@@H](C)CCC)C(=O)NC(=O)NC1=O	-30.6%[inhibitor]
CC1CC(C)C(=O)[C@H](C(O)CC2CC(=O)NC(=O)C2)C1 (stereo not given in full)	-0.5%

Some of these compounds in order of heavy-atom count, largest number first.
SMILES	EPAC1 ag val
C[C@]12CCC(=O)C=C1C=C[C@@H]1[C@@H]2CC[C@@]2(C)[C@H]1CC[C@@]2(O)CCC(=O)O	-11.8%
C[C@]1(O)CC[C@H]2[C@@H]3CCC4=CC(=O)CC[C@]4(C)[C@@]3(F)[C@@H](O)C[C@@]21C	6.9%
CC(C)Oc1cccc(NC(=O)c2ccccc2C(F)(F)F)c1	15.5%
CC1CC(C)C(=O)[C@H](C(O)CC2CC(=O)NC(=O)C2)C1 (stereo not given in full)	-0.5%
C=CCC1([C@@H](C)CCC)C(=O)NC(=O)NC1=O	-30.6%[inhibitor]
O=C1C2CC=CCC2C(=O)N1SC(Cl)(Cl)Cl (stereo not given)	-8.4%
N[C@@H](Cn1cc(I)c(=O)[nH]c1=O)C(=O)O	7.2%

Next section:
SMILES	EPAC1 ag val
CN1C(=O)C(O)N=C(c2ccccc2)c2cc(Cl)ccc21 (stereo not given)	-7.1%
CNC(=O)Oc1cccc2ccccc12	-32.5%[inhibitor]
CCC(COC(=O)c1cc(OC)c(OC)c(OC)c1)(c1ccccc1)N(C)C (stereo not given)	10.4%
C=CCSSCC=C	0.1%
CCC1(c2ccccc2)C(=O)N(COC)C(=O)N(COC)C1=O	-3.1%
COC([CH2][Hg])CNC(=O)c1ccccc1OCC(=O)O (stereo not given)	1.9%
Clc1cccc(N2CCNCC2)c1	5.3%&-3.4%
CN1C2CC3CC1C(O3)C2O (stereo not given)	-3.0%

Five records drawn at random from the list so far, as already listed:
SMILES	EPAC1 ag val
C=CCSSCC=C	0.1%
CN1C2CC3CC1C(O3)C2O (stereo not given)	-3.0%
CCC1(c2ccccc2)C(=O)N(COC)C(=O)N(COC)C1=O	-3.1%
Clc1cccc(N2CCNCC2)c1	5.3%&-3.4%
CCC(COC(=O)c1cc(OC)c(OC)c(OC)c1)(c1ccccc1)N(C)C (stereo not given)	10.4%

Individual results from the results shown.
`CCNC(C)Cc1cccc(C(F)(F)F)c1` (stereo not given) in EPAC1 ag val is listed with -5.9%
`Cc1c(O)c(O)cc2c1CC=C1[C@]3(C)CC[C@]4(C)CC[C@@](C)(C(=O)O)CC4[C@]3(C)CC[C@]12C` (stereo not given in full) in EPAC1 ag val is listed with -31.2%[inhibitor]
`CN1C2CC3CC1C(O3)C2O` (stereo not given) in EPAC1 ag val is listed with -3.0%

Screens as filed in PubChem.
